Bioassay records (PubChem)
TSHR agonist: agonists of human thyroid stimulating hormone receptor; Potency, µM (series often up to 57.1 µM), inactives show at the highest dose activation, most hits filed as activators; HEK293-CNG-TSHR cells (CNG channel as cAMP sensor), membrane potential dye, cAMP; 73,000 tested, 0.48% active; active = well fitted activation curve of enough size with the parental cells flat; inconclusive = any curve in the parental cells; inactive = parental cells flat and receptor cells flat or falling; note: potency is the fitted concentration of half-maximal effect; % of control where 0% means no effect; weak receptor curves with flat parental cells got no call and are not listed
Target sequence (P16473 whole entry, looked up): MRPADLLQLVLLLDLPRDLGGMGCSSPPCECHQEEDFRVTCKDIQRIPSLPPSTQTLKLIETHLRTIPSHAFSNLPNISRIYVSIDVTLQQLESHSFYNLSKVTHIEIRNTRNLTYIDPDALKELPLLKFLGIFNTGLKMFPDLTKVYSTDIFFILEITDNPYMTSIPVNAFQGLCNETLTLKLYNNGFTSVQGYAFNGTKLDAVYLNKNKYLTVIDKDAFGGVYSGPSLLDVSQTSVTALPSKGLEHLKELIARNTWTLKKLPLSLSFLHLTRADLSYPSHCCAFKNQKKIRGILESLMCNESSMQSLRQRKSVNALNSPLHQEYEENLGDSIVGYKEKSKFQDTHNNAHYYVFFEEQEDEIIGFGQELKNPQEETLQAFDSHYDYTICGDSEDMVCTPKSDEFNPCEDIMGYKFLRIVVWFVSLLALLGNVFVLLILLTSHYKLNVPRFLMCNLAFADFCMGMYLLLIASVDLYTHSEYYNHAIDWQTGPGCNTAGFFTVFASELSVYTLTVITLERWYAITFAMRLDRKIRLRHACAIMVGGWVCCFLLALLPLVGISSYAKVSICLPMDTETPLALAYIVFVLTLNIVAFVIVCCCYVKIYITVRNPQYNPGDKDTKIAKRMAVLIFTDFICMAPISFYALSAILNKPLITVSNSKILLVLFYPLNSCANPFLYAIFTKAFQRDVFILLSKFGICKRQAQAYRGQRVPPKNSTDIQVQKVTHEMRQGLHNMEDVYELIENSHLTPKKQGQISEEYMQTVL
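cAMP rise detected as CNG-channel membrane depolarization by fluorescent dye (emission 590 nm), 30 min after compound, following 60 min dye loading containing 100 uM RO 20-1724 at room temperature. Cells: TSHR/CNG HEK 293, with parental CNG HEK 293 as control.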
AID923: qHTS Assay for Allosteric/Competitive Inhibitors of Caspase-1: Spectroscopic Profiling in AFC Spectral Region; compound fluorescence, AFC spectral region (405/520 nm); almost no hit is shown here; Potency, µM (highest dose often 57.5 µM), inactives show at the highest dose fluorescence increase, hits mostly activators; 75,000 tested, 1.1% active; AID 923, 2007; active = well fitted activation curve with a large enough effect; inconclusive = small, poorly fitted or top-dose-only effect;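 note: potency is the fitted concentration of half-maximal effect; 0% is about no effect; scaled to a free AFC standard on each plate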
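Baseline compound fluorescence (AFC region, 405 nm ex/520 nm em) taken from the intercept of kinetic reads with 50 nM caspase-1 and 5 uM Ac-WEHD-AFC; normalized to an on-plate AFC standard curve; compounds titrated up to 57 uM.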
Resorufin autofl: compounds fluorescent in resorufin spectral region. Compound fluorescence, resorufin region 547/598 nm, buffer; active compounds read high. max dye-equivalent concentration, M. 59,000 tested, 0.04% active. AID 588; active = above 10 nM dye equivalent; inconclusive = 1 to 10 nM; inactive = 1 nM or less; a few of its hits are not listed in these tables; note: highest value over a series up to 38 µM
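Compounds in 100 mM Tris, pH 8.0, incubated 15 min at room temperature, then fluorescence read at 547 nm excitation/598 nm emission. Signal converted to dye-equivalent concentration via an on-plate six-point resorufin standard curve, per compound concentration.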
A488 fluor: compound fluoresces in the A488 spectral region. compound autofluorescence, A488 spectral region, dye equivalency; active compounds read high. max dye equivalency, M. 59,000 tested, 0.1% active. AID 591; active = above 10 nM dye equivalent; inconclusive = 1 to 10 nM; inactive = 1 nM or less; about half of its hits are not listed in these tables;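 note: highest value over a series up to 38 µM; compound alone in buffer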
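Compounds pin-transferred into 100 mM Tris buffer, pH 8.0, incubated 15 min at room temperature, then imaged with 480 nm excitation/540 nm emission filters. Fluorescence converted to Alexa 488 dye-equivalent concentration via an on-plate six-point A488 standard curve.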
A647 fluor: compound autofluorescence in A647 spectral region; Compound fluorescence, A647 channel (570/671 nm), Tris buffer; max dye-equivalent concentration, M; 59,000 tested, under 10 active; active means above 1 µM dye equivalent; inconclusive means 0.1 to 1 µM; inactive means 0.1 µM or less;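 note: values scaled relative to a standard on each plate; highest value over a series up to 38 µM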
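Tris 100 mM pH 8.0; cpd + A647 stds pin-transferred; 15 min RT; CCD imager, ex 570/em 671. Output = A647-equivalent conc. per cpd conc.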
* marks the source's active call; other numbers are inactive results; i = inactive; ? = inconclusive; · = no result given; & = joins results of further samples; [ ] = dose if it differs, or a comment.

Compound	TSHR agonist	AID923	Resorufin autofl	A488 fluor	A647 fluor
CCOCCCn1c(=S)[nH]c2cc3c(cc2c1=O)OCO3	0%	0.7%	i	i	5.4e-09
COCCn1c(SCCN2CCCCC2)nc2ccccc2c1=O	?	-0.3%	i	i	2.7e-08
C=CCn1c(C#N)c(N)sc1=N	9%	2.7%	i	i	1.6e-08
CCc1ccc(N(CC(=O)O)S(=O)(=O)c2c(C)noc2C)cc1	0%	-0.1%	·	·	·
COc1ccc(N2CCN(C(=O)CC3NC4CCCCC4NC3=O)CC2)cc1 (stereo not drawn)	2%	-0.6%	i	i	2.3e-08
CCC(c1nnnn1CCOC)N1CCN(C(=O)c2ccco2)CC1 (stereo not drawn)	-8%	-3.5%	i	i	3.4e-09
COc1ccc(-c2nnc(SCCC(=O)O)n2-c2ccccc2)cc1	3%	-3.5%	i	i	2.5e-08
COc1ccc(-c2noc(-c3ccccc3-c3ccccc3)n2)cc1OC	18%	0.9%	i	i	1e-09
Cc1ccc(-n2ncc3c(N4CCCC4)ncnc32)c(C)c1	·	·	i	i	1.5e-08
CCSc1nnc(NC(=O)C(CC)Oc2ccccc2)s1 (stereo not drawn)	9%	1.6%	i	i	1e-09
COc1ccc(-n2c(SC3CCOC3=O)nc3ccccc32)cc1 (stereo not drawn)	?	-0.1%	i	i	1e-09
CC(C)(C)c1ccc(/C=C/C(=O)Nc2ccc3c(c2)OCCO3)cc1	?	0.6%	·	·	·
COc1ccc(CCNC(=O)CN(C)S(=O)(=O)c2cccc3nsnc23)cc1OC	?	2.7%	i	i	3.7e-09
CCS(=O)(=O)c1ccc(O)c(N2C(=O)C3C4C=CC(C4)C3C2=O)c1 (stereo not drawn)	2%	0.2%	i	i	1.5e-09
O=C(c1c(Cl)nc2sccn12)N1CCCc2ccccc21	18%	0.4%	i	i	1.6e-09
O=C1CCC(=O)N1c1cccc(-c2nc3ccccc3o2)c1	5%	-0.8%	·	·	·
COC(=O)c1ccc(NC(=O)c2ccc3c(c2)OCO3)cc1	-6%	1.4%	i	i	2.5e-08
COc1ccc(C(=O)c2coc3ccc(O)c(CN4CCOCC4)c23)cc1	18%	2.4%	·	·	·
Cc1[nH]n(-c2ccccc2)c(=O)c1S(=O)(=O)c1ccccc1	6%[11.4 µM]	-1.2%	i	i	2.7e-09
O=C(COc1ccccc1)NC1CCN(Cc2ccccc2)CC1	12%	1.3%	i	i	2.4e-08
CC(CN1CCCCC1)OC(=O)c1ccccc1Cl (stereo not drawn)	4%	0.3%	i	i	8.3e-09
COc1cccc(C2NC(CC(C)C)(C(=O)O)C3C(=O)N(Cc4ccccc4)C(=O)C23)c1O (stereo not drawn)	0%[11.4 µM]	1.2%	i	i	2.5e-08
COC(=O)C1(C)C=C2C(=C(c3ccccc3)C(=O)C2C)CN1 (stereo not drawn)	2%	5.9%	·	·	·
COc1ccc(C2C(C(=O)NCC3CCCO3)CCC(=O)N2c2ccc3c(c2)OCO3)cc1 (stereo not drawn)	0%[11.4 µM]	0.7%	i	i	1.9e-08
O=C(Nc1cccc(C(=O)N2CCOCC2)c1)c1cccnc1	·	0.4%	i	i	1e-09
Clc1ccc(OCc2cn3cccnc3n2)c2ncccc12	-2%	-1.0%	i	i	3.1e-08
COc1cc(NC(=O)c2c(F)cccc2F)nc(OC)n1	-1%	0.0%	i	i	9.6e-09
CC(C)(C)n1cnc2cc(NS(=O)(=O)c3ccc(Br)cc3)ccc21	·	·	i	i	1.8e-08
O=S1(=O)CCC(S(=O)(=O)N2CCCCCC2)C1 (stereo not drawn)	0%	-0.3%	i	i	2.6e-08
CCCC(c1nnnn1CCc1ccccc1)N1CCN(C2CCCC2)CC1 (stereo not drawn)	?	0.8%	i	i	1e-09
O=C1NCN(c2ccccc2)C12CCN(CCCC(c1ccc(F)cc1)c1ccc(F)cc1)CC2	14%[25.6 µM]	-0.8%[25.7 µM]	i	i	1.1e-09&1.1e-08
CCOc1ccc(C2CC(c3ccc(F)cc3)Nc3nc(N)nn32)cc1 (stereo not drawn)	-4%	0.2%	·	·	·
CCn1c(=O)cc(OCC(=O)Nc2cc(C)ccn2)c2ccccc21	-2%[11.4 µM]	0.1%	i	i	4.4e-09
Cc1ccc2c(c1)CCCN2C(=O)C1CCCO1 (stereo not drawn)	0%	-0.6%	i	i	1e-09
COc1cccc(CN2C(=O)C3(C(C#N)=C(N)OC4=C3C(=O)CCC4)c3ccccc32)c1 (stereo not drawn)	-2%	-1.4%	i	i	1.2e-08
CN1C(=O)NC(c2ccc(O)cc2)C(C(=O)c2cccs2)C1(O)C(F)(F)F (stereo not drawn)	1%	0.3%	i	i	1e-09
CC1CCC(NS(=O)(=O)c2ccc3c(c2)n(C)c(=O)c(=O)n3C)CC1 (stereo not drawn)	10%	0.1%	i	i	1.4e-09
CCN1CCN(C(=O)c2cnn3c(C(F)F)cc(-c4ccc(C)cc4)nc23)CC1	?	7.0%	i	i	4.6e-08
Cc1ccc2c(c1)N(CC(=O)NC1CCC(C)CC1)C(=O)CO2 (stereo not drawn)	4%	-1.3%	i	i	1e-09
CCC1CCCCN1CCn1c(=S)[nH]c2cc(OC)c(OC)cc2c1=O (stereo not drawn)	4%	0.6%	i	i	1e-09
CC(=O)Nc1c(O)nc(SCC(=O)Nc2nnc(CC(C)C)s2)[nH]c1=O	0%	-1.4%	i	i	1e-09
Cc1ccccc1-c1nc(CS(=O)CC(=O)NCCCN(C)c2ccccc2)c(C)o1 (stereo not drawn)	10%	0.3%	i	i	3.2e-09
COc1ccccc1-c1oc2ccccc2c(=O)c1OC	?	-1.8%	i	i	1e-09
CCC(CC)C(=O)Nc1cccc(C(=O)NCc2ccco2)c1	17%	2.3%	i	i	6.9e-09
O=C(CN1CCN(c2ccccc2)CC1)N1CCN(c2ccccc2)CC1	10%	-1.1%	i	i	3e-08

Sorted by the number under A647 fluor (falling): three of the compounds above
canonical_smiles	Resorufin autofl	A488 fluor	A647 fluor
CCC(CC)C(=O)Nc1cccc(C(=O)NCc2ccco2)c1	i	i	6.9e-09
Cc1ccccc1-c1nc(CS(=O)CC(=O)NCCCN(C)c2ccccc2)c(C)o1 (stereo not drawn)	i	i	3.2e-09
Cc1ccc2c(c1)CCCN2C(=O)C1CCCO1 (stereo not drawn)	i	i	1e-09

New compounds follow.
Compound	TSHR agonist	AID923	Resorufin autofl	A488 fluor	A647 fluor
COc1ccccc1C(c1nnnn1C(C)(C)C)N1CCN(C(=O)c2ccco2)CC1 (stereo not drawn)	?	-0.5%	i	i	2.1e-08
CSc1ccccc1NC(=O)c1onc(C)c1Cl	22%	-1.2%	·	·	·
COc1ccc(Br)cc1C(=O)NCc1cccnc1	5%	0.8%	i	i	1e-09
CC(=O)N1CCN(CC(=O)Nc2c(Cl)cc(Cl)cc2Cl)CC1	4%	0.2%	i	i	1e-09
O=C(CCc1ccc(S(=O)(=O)N2CCOCC2)cc1)NCCc1ccccn1	9%	-0.2%	i	i	2.5e-09
CCCCCCC#CC1C=CC(OC(=O)OCC)C(COC(=O)OCC)O1 (stereo not drawn)	10%[11.4 µM]	-1.6%[11.5 µM]	·	·	·
O=C(O)CSc1nnc(-c2cccs2)n1-c1ccc(Cl)cc1	8%	-2.5%	i	i	1e-09
Cc1ccccc1-c1nc(CN2CCC(C(=O)N3CCN(c4ccccn4)CC3)CC2)c(C)o1	11%	-0.6%	·	·	·
COc1ccccc1NC(=O)C1CC(=O)OC1c1ccccc1 (stereo not drawn)	?	1.8%	i	i	1.5e-08
O=C(NCc1ccccn1)c1cc(S(=O)(=O)N2CCN(c3ccccc3)CC2)ccc1Cl	12%	0.4%	i	i	3.5e-08
CCN(CC)c1ncccc1C(=O)NCc1cccs1	2%	0.5%	i	i	3.6e-08
COCCN(C(=O)C(C)C)c1nnc(-c2cccc(C)c2)s1	3%	-1.5%	i	i	1.4e-08
COC(=O)c1cc(NC(=O)CN2CCOCC2)cc(C(=O)OC)c1	0%	-0.8%	i	i	4.9e-09
Cc1ccccc1C(=N)c1ccccc1Cc1cccc2ccccc12	6%[11.4 µM]	0.1%[11.5 µM]	i	i	1e-09
CC1(CCC#N)N=C(SCCC#N)N(c2ccccc2)C1=O (stereo not drawn)	-15%	-0.4%	i	i	1.4e-09
CC(C)N(C(=O)CSc1nnnn1C1CCCC1)C(C)C	1%	-2.0%	i	i	2.5e-08
C=C(C)Cn1c(CNC(C)=O)nc2ccccc21	2%	-2.4%	·	·	·
CC(C)C(OC(=O)c1ccco1)C(=O)NCc1ccccc1 (stereo not drawn)	?	0.3%	i	i	2.1e-08
Cc1cc(C)n2c(SCC(=O)Nc3ncc(C(F)(F)F)cc3Cl)nnc2n1	2%	1.6%	i	i	8e-09
Cc1ccc(N2CC(C(=O)NCC3CCCO3)CC2=O)cc1Cl (stereo not drawn)	-2%	-0.9%	i	i	2e-09
CCCNC(=O)Cn1cnc2sc(C(=O)N3CCN(CCC)CC3)c(C)c2c1=O	-4%	-1.0%	i	i	1e-09
CC1CCN(c2ncnc3c2cnn3Cc2ccc(Cl)cc2)CC1	·	·	i	i	1e-09
COc1ccc(Oc2ncc3nc(-c4ccccc4)c(=O)n(C4CC4)c3n2)cc1	?	16%	i	i	3.7e-08
CC1(C)CC(=O)c2cc(OCC(=O)N3CCN(c4ccccc4F)CC3)ccc2O1	27%	8.9%	i	i	3.3e-08
c1ccc2c(c1)ccc1ccccc12	?	-1.1%	·	·	·
Cc1ccc(NC(=O)CCSc2nnnn2-c2ccc3c(c2)OCO3)cc1C	1%	1.6%	i	i	2.8e-08
COc1cc(NC(=O)C2CCCCC2)c(OC)cc1NC(=O)CCC(=O)NCc1ccco1	?	-0.1%	i	i	1e-09
Cc1c(C(=O)N2CCN(c3ccccc3F)CC2)sc2nc(-c3ccccc3)cn12	?	0.4%	i	i	1e-09
CCOc1ccccc1N1C(=O)c2cccnc2C1=O	-2%	4.8%	·	·	·
C[C@@]1(C(NC(=O)c2ccccc2)c2ccc(-c3ccccc3)cc2)C[C@H]1C1CCCCC1 (stereo partly drawn)	7%	-0.5%	·	·	·

The final 3 compounds of the part above are carried over, then new ones follow.
Compound	TSHR agonist	AID923	Resorufin autofl	A488 fluor	A647 fluor
Cc1c(C(=O)N2CCN(c3ccccc3F)CC2)sc2nc(-c3ccccc3)cn12	?	0.4%	i	i	1e-09
CCOc1ccccc1N1C(=O)c2cccnc2C1=O	-2%	4.8%	·	·	·
C[C@@]1(C(NC(=O)c2ccccc2)c2ccc(-c3ccccc3)cc2)C[C@H]1C1CCCCC1 (stereo partly drawn)	7%	-0.5%	·	·	·
Cc1cc(=O)n(CCO)c(O)c1C#N	6%	5.2%	i	i	9.5e-09
OCc1ccncc1.OCc1ccncc1.[Cl][Pt]([Cl])([Cl])[Cl]	-1%[11.4 µM]	0.4%[11.5 µM]	i	i	2.4e-08
O=C(c1ccc(S(=O)(=O)N2CCCCC2)cc1)c1nnc(-c2ccc(Cl)cc2)o1	-1%	-0.4%	i	i	1.8e-08
CC(=O)/C(C#N)=C1\NC(=O)C(Cc2ccccc2)S1 (stereo not drawn)	·	·	i	i	1e-09

This is a subset; the hit share may differ from the screen's.
